Screens from PubChem.
PINK1 expr mod: A Quantitative High throughput Screen to Identify Chemical Modulators of PINK1 Expression; PINK1 immunofluorescence, high-content cytometry, 24 h; Potency, µM (titrated, usually from 76.6 µM), for the others: at the highest dose activation (PINK1 increase), usual class: activators; 410,000 tested, 0.2% active; AID 624263, 2012; active = well fitted activation curve with a large enough effect; inconclusive = small, poorly fitted or top-dose-only effect; inactive = flat fitted curve, though single readings scatter; cell line not stated here;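 further: potency means the concentration at half of the fitted maximal effect; % of control where 0% means no effect; nearly all actives have a fitted effect of over 65% in size; a mitochondrial uncoupler was the plate control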
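Decision-based qHTS: stable cells, 24 h exposure to five compound concentrations, CCCP as control. Fixed cells stained for PINK1 plus nuclear, mitochondrial and cell markers, cytometer read.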
ClpP mod: qHTS Assay for Activators of ClpP; ATP-dependent Clp protease proteolytic subunit (Bacillus subtilis (strain 168)), P80244; purified B. subtilis ClpP, FRET peptide cleavage, 20 min; Potency, µM (titrated, usually from 57.5 µM), for inactives: at the top dose activity change, negative = active; 340,000 tested, 1.9% active; AID 651965, 2013; active = well fitted falling curve with a large enough effect; inconclusive = small, poorly fitted or top-dose-only effect; inactive = no such curve, though single readings can be large or run the other way; further: potency means the concentration at half of the fitted maximal effect; the source files actives as falling curves though it sought activators and does not explain the sign; nearly all actives have a fitted effect of over 65% in size; many hits overshoot -100%
Target sequence (P80244 whole entry, looked up): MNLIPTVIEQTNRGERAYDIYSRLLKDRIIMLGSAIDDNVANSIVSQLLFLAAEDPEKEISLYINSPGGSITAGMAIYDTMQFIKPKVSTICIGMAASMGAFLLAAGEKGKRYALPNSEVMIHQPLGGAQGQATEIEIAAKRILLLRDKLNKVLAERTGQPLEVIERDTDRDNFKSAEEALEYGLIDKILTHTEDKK
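Purified B. subtilis ClpP, 10 microg/mL final in Tris/HCl pH8 with KCl, BSA, glycerol and Tween-20, cleaved an Abz/nitrotyrosine-quenched decapeptide. Fluorescence (ex 320, em 430) was read at 0 and 20 min at room temperature. Delta was normalized to 5.8 microM ADEP and DMSO/no-enzyme controls.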
Sfp PPTase inh: qHTS Assay for Inhibitors of Bacillus subtilis Sfp phosphopantetheinyl transferase (PPTase); 4'-phosphopantetheinyl transferase ffp (Bacillus subtilis), Q9F4F7; Biochemical Sfp PPTase activity, qHTS; Potency, µM, for inactives: max response, negative = inhibition, usual class: inhibitors; 310,000 tested, 3.5% active; active means well fitted inhibition curve with a large enough effect; inconclusive means small, poorly fitted or top-dose-only effect, or another doubt; inactive means no such curve, though single readings can be large or run the other way;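 further: the enzyme is Sfp with the accession as filed and its product quenches rhodamine fluorescence; potency means the concentration at half of the fitted maximal effect; 0% = enzyme reaction without inhibitor and -100% = no enzyme wells; top concentration of the series not given in the record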
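Fluorescence-quenching assay: 15 nM Sfp-PPTase preincubated 15 min at room temperature with compound, then 5 uM rhodamine-CoA and 12.5 uM BHQ-2-labelled YbbR peptide added. Fluorescence (ex 525/em 598 nm) read at start and after 30 min; difference gives rate.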
gsp ag: qHTS for Agonist of gsp, the Etiologic Mutation Responsible for Fibrous Dysplasia/McCune-Albright Syndrome: qHTS; Potency, µM (series often up to 76.9 µM), inactives show top-dose activation (cAMP increase), actives largely listed as activators; gsp mutant cells, cAMP HTRF, 30 min; control for the full effect not named in the record; 340,000 tested, 0.13% active; active = well fitted activation curve with a large enough effect; inconclusive = small, poorly fitted or top-dose-only effect, or another doubt; inactive = no such curve, though single readings can be large or run the other way; cell line not stated here;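 further: phosphodiesterase inhibitor Ro 20-1724 added with compounds to block cAMP breakdown; potency means the concentration at half of the fitted maximal effect; nearly all actives have a fitted effect of over 60% in size; about a fifth of the inactives were tested at one dose only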
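Cells in DMEM/10% FBS with G418 were pretreated with compounds in DMSO plus […] (300 uM stock) for 30 min at 37C. cAMP was measured by HTRF (cAMP-d2 plus anti-cAMP antibody-K) after 30 min at room temperature.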
Menin-MLL FL inh: qHTS Assay for Inhibitors Targeting the Menin-MLL Interaction in MLL Related Leukemias: Competition With Fluorescein Labeled MLL-derived Peptide | Fluorescence polarization, fluorescein-MLL peptide displacement from menin | FP activity change, % at 61.4 µM | 290,000 tested, under 10 active | AID 1766, 2009; inconclusive = falling polarisation curve, or a change in total fluorescence; inactive = total fluorescence flat and polarisation flat or rising; no compound was filed as active; the % refers to the polarisation; negative = inhibition;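 further: % of control where 0% means no effect; inhibitors lower the polarisation; unlabelled MLL peptide was the positive control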
gsp antag: qHTS for Antagonists of gsp, the Etiologic Mutation Responsible for Fibrous Dysplasia/McCune-Albright Syndrome: qHTS; 340,000 tested, 0.4% active; gsp-mutant cells, cAMP HTRF, 30 min; control for the full effect not named in the record; Potency, µM (top dose mostly 76.9 µM), for the others: top-dose activity change, negative = inhibition, hits mostly inhibitors; active = falling curve of any shape with a large fitted effect; inconclusive = falling curve, mostly with a smaller effect; inactive = flat or rising curve; cell line not stated here;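 further: intracellular cAMP measured with PDE inhibitor Ro 20-1724 present during compound exposure; potency means the concentration at half of the fitted maximal effect; on the % scale 0 is the no-effect control and ±100 the full control effect; nearly all actives have a fitted effect of over 65% in size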
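Measurement of cellular cAMP by homogeneous time-resolved fluorescence following a 30 min compound exposure at 37C. The PDE inhibitor […] was present throughout; the assay buffer was DPBS with 0.05% BSA and 0.005% Tween 20.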
D2 agonist: Beta-Arrestin HTS for Positive Allosteric Modulators of the Human D2 Dopamine Receptor: Agonists | D(2) dopamine receptor (Homo sapiens), P14416 | DiscoveRx PathHunter D2 beta-arrestin, luminescence, 90 min; 100% = 57 uM dopamine signal | activation, % (test concentration not listed) | 360,000 tested, 0.084% active; in the data active = activation above about 40%; inconclusive = about 15% to 40%; inactive = below about 15%; further: compound concentration not given in the record; the text of the record calls up to 30% inactive
Target sequence (P14416 whole entry, looked up): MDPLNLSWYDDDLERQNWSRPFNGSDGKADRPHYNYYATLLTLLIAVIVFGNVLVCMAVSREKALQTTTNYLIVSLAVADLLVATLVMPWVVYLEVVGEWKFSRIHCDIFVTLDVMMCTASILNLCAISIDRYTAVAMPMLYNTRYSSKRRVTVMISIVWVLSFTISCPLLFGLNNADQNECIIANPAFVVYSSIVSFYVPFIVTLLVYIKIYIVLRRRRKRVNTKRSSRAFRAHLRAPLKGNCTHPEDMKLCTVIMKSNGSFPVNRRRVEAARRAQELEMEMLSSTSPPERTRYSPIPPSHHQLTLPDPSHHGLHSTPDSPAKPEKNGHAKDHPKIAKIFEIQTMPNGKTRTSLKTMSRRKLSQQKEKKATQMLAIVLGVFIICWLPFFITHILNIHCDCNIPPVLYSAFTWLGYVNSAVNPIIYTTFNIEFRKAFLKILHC
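Agonist mode: compounds alone added to overnight-plated D2 PathHunter cells for 90 min at 37 C, with 57 uM final dopamine (EC100) defining full response. Beta-arrestin recruitment detected by chemiluminescent reagent, read after 1 h at ambient temperature.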
Numbers without * were called inactive; ? = inconclusive; . = not tested or not shown; & = joins results of further samples; [ ] = dose if it differs, or a comment. Compounds as they come; 5.1% or so of the library scored in one or more.

Preview (four entries):
SMILES	PINK1 expr mod	ClpP mod	Sfp PPTase inh	gsp ag	Menin-MLL FL inh	gsp antag	D2 agonist
CCCCNc1ccc(C(CC(N)=O)NC(=O)Cc2ccc(Br)cc2)cc1[N+](=O)[O-] (configuration not stated)	8.5%	-2.5%	-20%	.	8.5	-1%	-3.7
COc1ccc([C@H]2C=C(C(=O)O)O[C@@H](OCCCCO)C2)cc1	-0.3%	?	9%	.	5.4	4%	-3.1
O=C(CSc1nc2ccncc2[nH]1)Nc1ccccc1C(F)(F)F	5.0%&5.8%	-0.2%&-0.9%	19%	-60%[inhibitor]	3.0	3%	-3.1
CN(C)c1ncc(S(=O)(=O)c2ccc(Cl)cc2)c(-c2ccccc2)n1	3.3%	-0.8%	-5%	-11%	1.3	-20%	-4.2

The whole of this part (from the top)
SMILES	PINK1 expr mod	ClpP mod	Sfp PPTase inh	gsp ag	Menin-MLL FL inh	gsp antag	D2 agonist
CCCCNc1ccc(C(CC(N)=O)NC(=O)Cc2ccc(Br)cc2)cc1[N+](=O)[O-] (configuration not stated)	8.5%	-2.5%	-20%	.	8.5	-1%	-3.7
COc1ccc([C@H]2C=C(C(=O)O)O[C@@H](OCCCCO)C2)cc1	-0.3%	?	9%	.	5.4	4%	-3.1
O=C(CSc1nc2ccncc2[nH]1)Nc1ccccc1C(F)(F)F	5.0%&5.8%	-0.2%&-0.9%	19%	-60%[inhibitor]	3.0	3%	-3.1
CN(C)c1ncc(S(=O)(=O)c2ccc(Cl)cc2)c(-c2ccccc2)n1	3.3%	-0.8%	-5%	-11%	1.3	-20%	-4.2
COc1ccc(Cl)c2sc(N3CCN(C(=O)c4ccco4)CC3)nc12	0.9%	2.2%	.	24%	.	?	2.4
COc1cccc(NC(=S)N2CCC(Cc3ccccc3)CC2)c1	0.4%	-1.6%	6%	?	.	-7%	0.9
COc1ccc(-c2cc(NC=O)c3ncc(-c4cccc(C(=O)N(C)C)c4)n3c2)c(OC)c1	4.5%	-20%	.	.	.	.	4.6
OCC(O)C1OC(Oc2ccccc2)C(O)C(O)C1O (configuration not stated)	0.8%	.	.	3%	.	15%	1.9
Cc1ccc(-c2ccc(=O)n(CC(=O)NCc3ccc(F)cc3)n2)cc1	-0.3%&5.9%	?	-14%	-20%	4.6	1%	-5.2
COc1cc(/C=C(/C#N)c2ccccc2F)ccc1OCc1ccccc1	-0.2%	-16%	0%	-71%[inhibitor]	-3.8	-2%	-0.6
O=C(Nc1ccccc1)N1CC2(CCN(C(=O)c3ccncc3)CC2)C1	-0.9%	.	-5%	.	-7.0	.	.
O=C(COC(=O)CCCSc1nc2ccccc2[nH]1)Nc1ccc(Oc2ccccc2)cc1	4.0%	-2.5%	28%	-27%	7.0	-10%	-1.6
CC1(c2ccc3ccccc3c2)NC(=O)N(CC(=O)N2CCN(Cc3ccccc3)CC2)C1=O (configuration not stated)	-1.3%	-3.0%	.	-28%	.	-14%	0.9
Cc1cnc(C2OCCO2)c2cccc(N)c12	0.6%	-5.0%	.	?	.	.	-0.3
CC1CCCC(C)N1/N=C/c1cccc([N+](=O)[O-])c1 (configuration not stated)	3.6%	1.0%	21%	12%[15.4 µM]	0.3	0%	-0.4
CCOC(=O)C1=C(CNCCc2ccc(Cl)cc2)NC(=O)NC1c1cccc([N+](=O)[O-])c1 (configuration not stated)	-0.8%	.	15%	10%[15.4 µM]	0.2	-8%	-1.2
CCOc1ccc(-n2c(=S)sc3c(=O)n(-c4ccc(F)cc4)c(SCC(=O)O)nc32)cc1	-0.1%	1.8%	10%	-4%	5.1	-4%	-6.7
COc1ccc(CNC(=O)CN(C(=O)c2csnn2)c2ccccc2F)cc1	-1.0%	.	12%	-26%	-7.3	1%	3.4
COc1ccc(OCC(=O)OC(C)CN2CCOCC2)cc1 (configuration not stated)	-1.2%	-0.5%	7%	-4%	2.4	-18%	-2.5
Cc1ccc(NC(=S)N2CCC(N(C)CC3CCCO3)CC2)cc1C (configuration not stated)	-0.6%	.	12%	-7%[15.4 µM]	-0.3	9%	-2.2
CC(=O)N(c1ccc2oc(=O)sc2c1)S(=O)(=O)c1ccc(C(=O)O)cc1	-0.5%	.	56µM*	10%	3.2	1%	-4.1
CCOC(=O)C1(C)CCCN(C(=O)c2ccccc2C(F)(F)F)C1 (configuration not stated)	1.1%	-3.7%	.	.	.	.	-2.9
CCCCN1C(=O)C(NC(=O)c2cccnc2)(C(F)(F)F)C2=C1CC(C)(C)CC2=O (configuration not stated)	-3.2%	2.8%	6%	0%	5.2	6%	-0.9
Cc1cc(NC(=O)c2cc(-c3ccncc3)nc3c(C)cccc23)no1	8.0%	?	5%	-70%	0.6	-5%	0.9
CCOc1ccc(NC(=O)COc2ccc(S(=O)(=O)N3CCOCC3)cc2)cc1	0.6%	1.8%	.	-4%[15.4 µM]	.	-4%	-2.6
COc1ccc(C(=O)Nc2nnc([C@@H]3C[C@H](O)[C@@H](CO)O3)s2)cc1	1.1%	-0.7%	.	.	.	.	3.2
Cc1ccc(S(=O)(=O)N2CCCC2C(=O)OCc2nc3ccccc3s2)cc1 (configuration not stated)	1.9%	0.6%	-2%	-56%[inhibitor]	2.7	-7%	-0.7
CCOC(=O)c1nn(-c2ccccc2)c2nnc(Cc3ccc(C)cc3)c(=O)n12	3.9%	-1.6%	13%	21%	0.6	-1%	-7.2
Cc1ccc(OCc2cc(C(=O)NC3CCCCC3)no2)cn1	-0.7%	-3.0%	-7%	14%	-7.7	-6%	8.9
O=S(=O)(c1ccc(Cl)cc1)N1CCN(C2CCN(Cc3ccccc3)CC2)CC1	4.3%	-0.9%	13%	2%	-2.9	20%	-2.8
CCc1ccc(N(C(=O)c2snc(C(N)=O)c2N)C(C(=O)NC2CCCC2)c2ccncc2)cc1 (configuration not stated)	4.3%	.	28%	-4%[15.4 µM]	.	-13%	1.8
CCN1CCc2c(sc(NC(=S)NC(=O)c3ccccc3)c2C#N)C1	0.1%	-4.7%	56µM*	?	8.9	5%	6.3
CNC(=S)NNC(=O)c1cc(-c2cccnc2)nc2ccccc12	0.1%	2.2%	14%	23%	.	-14%	-8.2
O=C(NCCS(=O)(=O)N1CCN(c2cccc(Cl)c2)CC1)C1CCCC1	-0.2%	-3.2%	.	4%	.	1%	-2.6
OC(CN1CCN(c2ccc(C(F)(F)F)cn2)CC1)c1ccccc1 (configuration not stated)	12%	-3.2%	5%	-17%	-0.4	-1%	-5.6
C#CCOCCOCCOCCNc1nc(N2CCN(C(=O)[C@H](CCCCN)n3cc([C@@H](N)C(C)CC)nn3)CC2)nc(N2CCN(C(=O)[C@H](Cc3ccc(O)cc3)n3cc([C@@H](N)CC(C)C)nn3)CC2)n1 (some centres not stated)	0.2%	0.2%	8%	.	-1.0	10%	-1.8
O=C(Nc1cc(Cl)cc(Cl)c1)C1CCCC1	?	-0.9%	1%	-1%[15.4 µM]	-2.2	-13%	6.4
Cc1ccc(C(=O)Oc2oc(-c3ccccc3)nc2C=Nc2ccc(N(C)C)cc2)cc1	2.1%	0.5%	?	-4%	-7.0	-4%	-0.8
CCn1c(COc2cccc(OC)c2)nnc1SCC(=O)N1CCOCC1	-3.4%[38.3 µM]	0.4%	10%	-7%	-1.9	-8%	-2.9
Cc1[nH]n(-c2ccccc2)c(=S)c1C=NCCCN=Cc1c(C)[nH]n(-c2ccccc2)c1=S	0.4%	-0.7%	-96%	5%	-3.6	-5%	-2.5
CC(C)(C)c1ccc(OCC(=O)N/N=C/c2ccc(N3CCOCC3)cc2)cc1	8.0%	35µM*	14%	-23%	6.4	-6%	0.6
COc1cc(CN2CCC(n3nccc3NC(=O)CCCc3ccccc3)CC2)ccc1F	1.0%	-0.2%	5%	-44%[inhibitor]	-5.7	6%	-4.1
COc1ccccc1CCNC(=O)C1CCCO1 (configuration not stated)	13%[38.3 µM]	0.6%	5%	-22%	4.7	6%	-1.7
CC(=O)c1cc(CN2CCC(N3CCC(C(=O)N4CCCC4)CC3)CC2)cs1	0.4%	.	22µM*	10%[15.4 µM]	3.7	8%	1.2
CC(=O)c1ccc(NC(=O)COC(=O)Cn2cnc3ccccc32)cc1	0.5%	1.3%	.	-2%[15.4 µM]	.	11%	-1.7
Cc1nnc(NC(=O)c2ccc3ccccc3c2)o1	-0.9%	-15%	-11%	-1%	1.9	-3%	-0.5
Cc1ccc(C)c(OCC(O)CN2CCC(C)CC2)c1C (configuration not stated)	1.0%	-0.1%	-17%	-24%	-0.9	6%	-2.9
NC(=O)C1(N2CCCCC2)CCN(C(=O)c2cccs2)CC1	0.6%	0.3%	30%	-14%	2.0	11%	1.6
CN(C)S(=O)(=O)Nc1cccc(-c2cn3c(n2)SCC3)c1	-0.2%	-12%	12%	-17%	-0.7	-3%	-12
Cc1sc2nc(C3CC3)nc(SCC(=O)N3CC(=O)Nc4ccccc43)c2c1C	0.3%[38.3 µM]	-0.6%	-16%	8%	8.2	-2%	0.3
COc1ccc(CCNC(=O)c2cccs2)cc1	0.9%	.	13%	-40%	-3.2	3%	4.9
CCSc1nc(-c2ccc(OC)cc2)ccc1C#N	-0.1%	28µM*	-18%	-14%	2.3	-8%	-3.1
O=C(CSc1nnc(NC(=O)C2CC2)s1)Nc1cccc(F)c1	3.8%	?	-6%	3%	.	0%	-0.2
COc1ccc(-c2noc(CCCC(=O)NC3CCCCC3)n2)cc1	-0.9%	.	4%	-2%	5.8	-12%	-0.3
